# Giardia FBPA inh = qHTS Assay for Inhibitors of Fructose-1,6-bisphosphate Aldolase from Giardia Lamblia; purified Giardia FBPA; Potency, µM (highest dose often 59.6 µM), without a hit: at the highest dose activity, negative = inhibition, hits mostly inhibitors; hit rate 0.71% among 290,000; AID 2451, 2010; also: nearly all actives have a fitted effect of over 55% in size
# Target sequence (A8B2U2 whole entry, looked up): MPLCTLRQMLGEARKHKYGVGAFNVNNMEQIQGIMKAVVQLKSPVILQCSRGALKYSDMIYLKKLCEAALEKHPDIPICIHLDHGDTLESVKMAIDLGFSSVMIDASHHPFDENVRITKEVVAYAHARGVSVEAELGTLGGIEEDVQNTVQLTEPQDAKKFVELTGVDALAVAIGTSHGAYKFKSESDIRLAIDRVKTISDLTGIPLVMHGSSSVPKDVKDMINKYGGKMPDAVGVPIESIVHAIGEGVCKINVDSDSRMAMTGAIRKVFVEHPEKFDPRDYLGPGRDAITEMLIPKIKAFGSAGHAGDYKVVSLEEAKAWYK
#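 40 nM FBPA preincubated 10 min at RT with compound (up to 57.5 uM final), then substrate plus GAPDH/TPI/NAD/arsenate coupling and diaphorase/resazurin added. Fluorescence read after 20 min at RT, 525/598 nm.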
# AMA1-RON2 inh = qHTS for Inhibitors of AMA1-RON; Towards Development of Antimalarial Drug Lead: Primary Screen; AlphaScreen AMA1-biotinylated RON2 peptide binding; Potency, µM (doses to about 58.2 µM), for the others: top-dose activity change, negative = inhibition, actives largely listed as inhibitors; hit rate 0.2% among 360,000; AID 720542, 2013;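 also: 0% = vehicle wells and -100% = peptide control; nearly all actives have a fitted effect of over 45% in size; some results filed as inactive show a strong effect at the top dose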
#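 AMA1 (3D7) with his tag at 25 nM final met compounds first, then biotinylated RON2 peptide at 25 nM; detection used donor plus acceptor beads, 10 µg/mL apiece, read by AlphaScreen after 30 min at room temperature.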
# Sm TGR block = qHTS Assay for the Inhibitors of Schistosoma Mansoni Peroxiredoxins; hit rate 3% among 360,000; Schistosoma mansoni thioredoxin glutathione reductase (TGR), Q962Y6; purified TGR, DTNB reduction, TNB absorbance 405 nm; Potency, µM (top dose mostly 114 µM), inactives show top-dose activity change, negative = inhibition, hits mostly inhibitors; also: nearly all actives have a fitted effect of over 60% in size
#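 TGR 20 nM + NADPH 100 uM (dispensed conc.), cpd preinc 15 min RT; start with NADPH (500 uM addition) then DTNB (15 mM addition). Kinetic TNB absorbance, 405 nm filter. Four-parameter Hill fit across titration.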
# Starred values were filed as active, the others as inactive; u = inconclusive; x = not tested or not shown; & = joins results of further samples; [ ] = another dose, or the depositor's remark. Calls follow the shape of the dose curve; as a rule, active = well fitted curve in the direction sought with a large enough effect; inconclusive = small, poorly fitted or top-dose-only effect, or another doubt; inactive = no such curve, though single readings can be large; an effect the other way counts as inactive or inconclusive. Unless noted, % is scaled to controls: 0 for no effect and ±100 for the full control effect; potency is read from the fitted curve at half-maximal effect. Not all compounds are listed; the hit share may differ from the screen's.
1	C[N+](C)(C)CCO
  Giardia FBPA inh: 5%&-2%
  AMA1-RON2 inh: x
  Sm TGR block: x
2	CO/N=C(\C(=O)N[C@@H]1C(=O)N2C(C(=O)O)=C(COC(C)=O)CS[C@H]12)c1csc(N)n1 (stereo in doubt)
  Giardia FBPA inh: 9%&-2%
  AMA1-RON2 inh: -2%&107%&26%
  Sm TGR block: -2%
3	CC(C)(C)[C@]1(O)CCN2CC3c4ccccc4CCc4cccc(c43)[C@@H]2C1 (stereo partly specified)
  Giardia FBPA inh: -5%&-10%
  AMA1-RON2 inh: x
  Sm TGR block: x
4	CC[C@H](OC(C)=O)C(C[C@H](C)N(C)C)(c1ccccc1)c1ccccc1
  Giardia FBPA inh: x
  AMA1-RON2 inh: -6%
  Sm TGR block: x
5	C[C@@H]1C[C@@H]2[C@H]3CCC4=CC(=O)C=C[C@]4(C)[C@]3(F)[C@@H](O)C[C@]2(C)[C@@]1(O)C(=O)CO
  Giardia FBPA inh: 1%[21.7 µM]
  AMA1-RON2 inh: x
  Sm TGR block: x
6	C[C@H]1C[C@H]2[C@@H]3CCC4=CC(=O)C=C[C@]4(C)[C@@]3(F)[C@@H](O)C[C@]2(C)[C@@]1(O)C(=O)CO
  Giardia FBPA inh: x
  AMA1-RON2 inh: -2%
  Sm TGR block: x
7	CC1(C)O[C@@H]2C[C@H]3[C@@H]4C[C@H](F)C5=CC(=O)C=C[C@]5(C)[C@H]4[C@@H](O)C[C@]3(C)[C@]2(C(=O)CO)O1
  Giardia FBPA inh: x
  AMA1-RON2 inh: 9%
  Sm TGR block: -20%
8	O=c1c(O)c(-c2ccc(O)c(O)c2)oc2cc(O)cc(O)c12
  Giardia FBPA inh: u
  AMA1-RON2 inh: 7%
  Sm TGR block: -24%
9	O=C(O)[C@@H](O)[C@H](O)C(=O)O
  Giardia FBPA inh: x
  AMA1-RON2 inh: 16%
  Sm TGR block: x
10	CC(C)(C)[C@]1(O)CCN2C[C@H]3c4ccccc4CCc4cccc(c43)[C@@H]2C1
  Giardia FBPA inh: -18%
  AMA1-RON2 inh: -6%
  Sm TGR block: -3%
11	C[C@@]12C[C@@H](O)[C@H]3[C@@H](CCC4=CC(=O)CC[C@]43C)[C@H]1CC[C@H]2C(=O)CO
  Giardia FBPA inh: -2%[21.7 µM]
  AMA1-RON2 inh: x
  Sm TGR block: x
12	CC1=C(CC(=O)O)c2cc(F)ccc2/C1=C/c1ccc(S(C)=O)cc1 (stereo unspecified)
  Giardia FBPA inh: 2%
  AMA1-RON2 inh: -2%
  Sm TGR block: 20µM*

# Whole records, quoted from the list.
# `O=c1c(O)c(-c2ccc(O)c(O)c2)oc2cc(O)cc(O)c12` is listed as Giardia FBPA inh = u; AMA1-RON2 inh = 7%; Sm TGR block = -24%
# `C[C@@H]1C[C@@H]2[C@H]3CCC4=CC(=O)C=C[C@]4(C)[C@]3(F)[C@@H](O)C[C@]2(C)[C@@]1(O)C(=O)CO` is listed as Giardia FBPA inh = 1%[21.7 µM]; AMA1-RON2 inh = x; Sm TGR block = x
# `C[C@H]1C[C@H]2[C@@H]3CCC4=CC(=O)C=C[C@]4(C)[C@@]3(F)[C@@H](O)C[C@]2(C)[C@@]1(O)C(=O)CO` is listed as Giardia FBPA inh = x; AMA1-RON2 inh = -2%; Sm TGR block = x

# Already shown: an excerpt of the list.
1	C[N+](C)(C)CCO
  Giardia FBPA inh: 5%&-2%
  AMA1-RON2 inh: x
  Sm TGR block: x
2	CO/N=C(\C(=O)N[C@@H]1C(=O)N2C(C(=O)O)=C(COC(C)=O)CS[C@H]12)c1csc(N)n1 (stereo in doubt)
  Giardia FBPA inh: 9%&-2%
  AMA1-RON2 inh: -2%&107%&26%
  Sm TGR block: -2%

# Compound activity (PubChem BioAssay)
